YopH PTP inh: YopH (Yersinia) phosphatase inhibition. hit rate 0.16% among 140,000. inhibition, %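 (about 10 µM by stock and volumes)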. fluorescence Ex485/Em525;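 active = inhibition of 50% or more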;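 also: controls were vehicle for no effect and minimum signal wells for full effect; inactives centre near -20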
Mtb H37Rv: M. tuberculosis H37Rv growth inhibitors, H37Rv strain (AID 1626) | M. tuberculosis H37Rv growth inhibition; higher % means a stronger effect | inhibition, % at 10 µM, or IC50 in µM where a hit was titrated | hit rate 0.95% among 220,000;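 active = confirmed in a dose series; inconclusive = inhibition above 80% but not taken into the dose series; inactive = below 80% or under 30% at every dose of the series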;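 also: bacteria incubated seven days before Alamar blue readout; 0% = bacteria only wells and 100% = bacteria with antibiotic wells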
RecA intein inh: blocks M. tuberculosis RecA intein splicing; P9WHJ3; cell-free RecA intein splicing, fluorescence; inhibition, %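 (about 9 µM by stock and volumes)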; hit rate 0.75% among 290,000; in the data active = inhibition above about 30%; inconclusive = no clear call, values can overlap the other calls;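 also: 0% = vehicle wells and 100% = reference inhibitor control wells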
Target sequence (P9WHJ3 whole entry, looked up): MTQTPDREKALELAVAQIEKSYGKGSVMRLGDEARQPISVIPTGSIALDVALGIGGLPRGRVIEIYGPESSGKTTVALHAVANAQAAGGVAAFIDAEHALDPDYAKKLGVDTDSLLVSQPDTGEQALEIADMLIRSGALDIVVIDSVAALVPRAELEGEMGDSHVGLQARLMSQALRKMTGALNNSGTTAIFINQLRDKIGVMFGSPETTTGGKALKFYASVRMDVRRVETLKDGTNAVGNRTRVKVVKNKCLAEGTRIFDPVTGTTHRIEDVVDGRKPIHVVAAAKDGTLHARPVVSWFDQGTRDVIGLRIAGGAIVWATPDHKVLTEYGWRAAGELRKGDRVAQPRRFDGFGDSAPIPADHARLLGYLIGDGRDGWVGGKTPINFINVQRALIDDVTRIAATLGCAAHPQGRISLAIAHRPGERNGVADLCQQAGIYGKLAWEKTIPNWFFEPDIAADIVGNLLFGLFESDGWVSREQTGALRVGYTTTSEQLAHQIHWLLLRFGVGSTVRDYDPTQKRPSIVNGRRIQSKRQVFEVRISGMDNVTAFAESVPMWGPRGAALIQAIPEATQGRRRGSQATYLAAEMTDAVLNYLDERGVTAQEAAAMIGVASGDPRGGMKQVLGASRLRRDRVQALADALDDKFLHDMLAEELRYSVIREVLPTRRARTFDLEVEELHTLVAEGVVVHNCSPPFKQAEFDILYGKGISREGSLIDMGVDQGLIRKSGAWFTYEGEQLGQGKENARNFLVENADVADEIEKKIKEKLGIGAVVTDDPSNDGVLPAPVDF
Mtb bLac sens: beta-lactam sensitization of Mtb H37Rv. M. tuberculosis H37Rv growth with meropenem, percent inhibition; hits of this screen are not shown here. inhibition, % at 25 µM. hit rate 0.27% among 330,000. AID 434955;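 active = about 74% or more and at least 40 points above the plate without the antibiotic, then above 30% in a dose series; inconclusive = first-round hits that could not be retested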;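 also: growth measured after seven days incubation then overnight dye step; 0% = bacteria only wells and 100% = bacteria with antibiotic; twin plates without the antibiotic show which effects depend on it; some results filed as inactive read as strong as hits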
Arbovirus inh: antivirals against arbovirus infection; AID 1251; arbovirus infection cell-based antiviral screen; inhibition, % at 10 µM; hit rate 0.37% among 200,000;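 active = inhibition from about 30%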;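 also: bluetongue infection of BSR cells; cell survival read as ATP light after 72 h; 0% = infected wells without compound and 100% = uninfected wells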
Arbovirus inh repeat: also measured in Arbovirus inh; calls as there; inhibition, %; measured here: 10K subset replicate screen; many hits read low in the repeat;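 first of two repeat runs on a subset; 0% = infected and 100% = uninfected wells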
Active calls of the source: *; ? = inconclusive; . = not tested or not shown. Some of the compounds tested; rates above refer to the full screens.

Start of the data: the first four entries (preview)
SMILES | YopH PTP inh | Mtb H37Rv | RecA intein inh | Mtb bLac sens | Arbovirus inh | others
O=C(Nc1c(F)cc(F)cc1F)c1cccn(Cc2ccccc2)c1=O | . | 9% | -3.8 | -9 | 1
Cc1ccn(-c2cc(O)c(-n3ccc(C)n3)cc2O)n1 | . | . | -4.5 | 2 | 6
CCOc1ccc(CNC(=O)CCC(=O)n2nc(C)c3ccccc32)cc1 | . | . | 0.6 | 5 | .
CC(C)(C)C(=O)Nc1ccccc1C(=O)NCc1ccco1 | -28 | -5% | 1.3 | -9 | 1

All compounds of this part (from the top)
SMILES | YopH PTP inh | Mtb H37Rv | RecA intein inh | Mtb bLac sens | Arbovirus inh | others
O=C(Nc1c(F)cc(F)cc1F)c1cccn(Cc2ccccc2)c1=O | . | 9% | -3.8 | -9 | 1
Cc1ccn(-c2cc(O)c(-n3ccc(C)n3)cc2O)n1 | . | . | -4.5 | 2 | 6
CCOc1ccc(CNC(=O)CCC(=O)n2nc(C)c3ccccc32)cc1 | . | . | 0.6 | 5 | .
CC(C)(C)C(=O)Nc1ccccc1C(=O)NCc1ccco1 | -28 | -5% | 1.3 | -9 | 1
Cc1c(-c2ccccc2)c(=O)oc2ccc(O)cc12 | . | . | -0.7 | -7 | .
Cc1cccc(N2NC(=O)/C(=C/c3ccc(-c4ccc(Cl)c(C(=O)O)c4)o3)C2=O)c1 | . | -4% | -4.8 | . | -24
Cc1nonc1NC(=O)CSc1nc(CCC2CCCC2)nc2ccccc12 | . | . | 12 | -7 | .
O=C(O)C1CCCN1S(=O)(=O)c1ccc(Br)s1 (configuration not stated) (tested in a mixture with another compound) | -6 | -8% | 1.7 | 1 | 4
CC(C)CNC(=O)c1ccccc1NC(=O)c1ccc(CSc2ccccc2)cc1 | -9 | 14% | 15 | -5 | 10
O=C(CNC(=O)c1ccc(F)cc1)c1ccc(Cl)cc1 | . | . | -1.8 | 11 | .
CC(=O)Nc1cccc(-c2nc3ccccc3s2)c1C | . | 3% | 3.2 | -7 | 4
O=S(=O)(NCC1CCN(Cc2ccccc2)CC1)c1ccccc1C(F)(F)F | . | . | 3.5 | 2 | .
CC1(c2ccccc2)NC(=O)N(CC(=O)Nc2ccc3c(c2)OCO3)C1=O (configuration not stated) | -25 | 35% | 0.1 | -6 | -4
CC(C)(C)NC(=O)Cc1ccc(S(=O)(=O)N2CCCC2)s1 | 1 | 0% | 4.8 | -7 | 3
O=C(NNc1nc(-c2ccccc2)c2cc(Br)ccc2n1)c1ccc(S(=O)(=O)N2CCCCC2)cc1 | -17 | 3% | 1.0 | 11 | -11
Cc1ccc(CNC(=O)C2CCN(S(=O)(=O)c3ccc4c(c3)CC(C)N4C(=O)C3CCC3)CC2)o1 (configuration not stated) | . | . | 0.1 | -2 | .
CC(=O)N1CCN(c2ccc(NC(=O)c3ccccc3Br)cc2Cl)CC1 | -17 | 3% | 2.5 | 8 | 3
CC(CN1CCCCC1)OC(=O)c1cc2ccccc2o1 (configuration not stated) | 2 | -7% | -3.7 | -11 | 3
CCc1ccccc1N(CC(=O)N/N=C/c1ccc(OC(=O)OC)c(OC)c1)S(C)(=O)=O | -5 | 12% | 9.5 | -5 | 1
CCN(CC)C(=O)CS(=O)(=O)CC(=O)Nc1cc(OCCOC)c(Cl)cc1Cl | . | 6% | . | -7 | 0
O=C(CN1C(=O)C2CC=CCC2C1=O)Nc1cc(C(F)(F)F)ccc1N1CCCC1 (configuration not stated) | . | . | -0.9 | -4 | .
CC1(C)C2CCC(C2)C1(C)NC(=O)CN1CCN(Cc2ccccc2)CC1 (configuration not stated) | . | 2% | 0.7 | 1 | -1
COc1cc(C(C)=O)ccc1Oc1ncnc2c1cnn2-c1ccc(F)cc1 | -15 | 1% | -0.7 | 2 | 9
O=C(c1ccccn1)N1CCN(S(=O)(=O)c2ccccc2)CC1 | . | 3% | 0.6 | -3 | 1
Cc1ccc(N2C(=O)N(CC(=O)Nc3ccc([N+](=O)[O-])cc3)C(=O)C2C)cc1 (configuration not stated) | . | . | -3.5 | 1 | .
O=C1C([N+](=O)[O-])=C(O)c2cccc3cccc1c23 | . | . | -5.0 | 4 | .
CCOc1ccc(-c2nc(-c3ccc(OC)cc3)no2)cc1OCC | 8 | 3% | 2.1 | 95 | 0
CC(C)(C)c1ccc(C(=O)Nc2ccc(NC(=O)C(=O)O)cc2)o1 | . | -7% | -0.5 | -2 | 3
Cc1ccc(C(=O)CN(C(=O)c2ccc(Cl)c(Cl)c2)N2C(=O)C3CCCCC3C2=O)cc1C (configuration not stated) | -5 | -6% | -0.9 | -18 | 16
CN(C)C(=O)CCc1nc(-c2ccc(C(C)(C)C)cc2)no1 | -20 | 8% | -6.4 | 78 | 8
COc1ccccc1OCC(=O)NC1CC(C)(C)NC(C)(C)C1 | . | . | -1.2 | -2 | .
CCO[C@@H]1OC(C(=O)Nc2ccccc2)=C[C@H](c2ccc(C(F)(F)F)cc2)[C@H]1CCCO | . | 3% | 1.5 | 10 | -21
Cc1ccc(NC(=O)CN2C(=O)NC(C)(c3ccc(Cl)cc3)C2=O)c(Br)c1 (configuration not stated) | . | . | 4.5 | 8 | .
CCCNC(=O)Nc1nnc(C2CC2)s1 | . | 0% | 0.5 | 7 | 3
CCC(=O)N1c2ccc(S(=O)(=O)CCC(=O)NCc3cccs3)cc2CC1C (configuration not stated) | -19 | -18% | 1.7 | 0 | -14
CCOc1ccc2[nH]c(C(=O)N/N=C/c3ccccc3OC)cc2c1 | . | . | -4.6 | 5 | .
Cc1cc(O)c(C=Nc2ccc(Cl)cn2)c(=O)o1 | -23 | 2% | -3.6 | 4 | -1
COc1cc(NS(=O)(=O)c2ccc(N/C=C\C(=O)c3ccc(OC)c(OC)c3)cc2)nc(OC)n1 | -16 | -3% | -62 | -2 | -12
Cc1nn(C)c(C)c1CN(C)C(=O)C1CCC(=O)N(C2CCCCCC2)C1 (configuration not stated) | . | . | -2.1 | -5 | .
CCOC(=O)c1c(C)[nH]c(C(=O)CSc2nnc(-c3ccncc3)n2CC)c1C | -16 | 7% | -4.3 | -6 | 1
CCN(CC(=O)Nc1ccc(NC(C)=O)cc1)C(=O)CSc1ncnc2sc(C)c(C)c12 | . | . | -3.2 | -9 | .
CCn1c(=O)c(=O)[nH]c2cc(C(=O)NC(C)c3ccc(S(N)(=O)=O)cc3)ccc21 (configuration not stated) | . | . | 5.2 | 3 | .
COC(=O)C1=C(NC(C)=O)CCS1 | 9 | -1% | -0.3 | 0 | 5
CN(C(=O)CCc1nnc(CCCCc2ccccc2)o1)C1CCOCC1 | . | -6% | -0.4 | 0 | 4
Cc1nn(-c2ccc(N3CCCCC3)nn2)c(C)c1CCC(=O)Nc1ccccc1F | . | . | 1.2 | 4 | .

A draw from above in order of count of non-hydrogen atoms, largest number first.
SMILES | YopH PTP inh | Mtb H37Rv | RecA intein inh | Mtb bLac sens | Arbovirus inh | others
COc1cc(NS(=O)(=O)c2ccc(N/C=C\C(=O)c3ccc(OC)c(OC)c3)cc2)nc(OC)n1 | -16 | -3% | -62 | -2 | -12
CCOC(=O)c1c(C)[nH]c(C(=O)CSc2nnc(-c3ccncc3)n2CC)c1C | -16 | 7% | -4.3 | -6 | 1
CCCNC(=O)Nc1nnc(C2CC2)s1 | . | 0% | 0.5 | 7 | 3

Going on with the list:
SMILES | YopH PTP inh | Mtb H37Rv | RecA intein inh | Mtb bLac sens | Arbovirus inh | others
COc1ccc2nc(NC(=O)CCc3nc(-c4ccccc4F)no3)sc2c1 | 31 | -1% | 0.5 | . | -2
Cc1ccc(S(=O)(=O)Nc2ccc(-c3nnc(SCC#N)n3C)cc2)cc1 | -20 | -15% | 2.1 | 3 | -1
COc1ccc2cc(C(=O)Nc3c(C)n(C)n(-c4ccccc4)c3=O)sc(=O)c2c1OC | . | . | -0.1 | 4 | -3 | Arbovirus inh repeat=1
CCCCOc1ccc(C(=O)N/N=C/c2cn[nH]c2-c2ccc(OC)c(OC)c2)cc1 | -29 | 18% | 1.9 | 7 | 21
O=C(Nc1ccc(C(F)(F)F)cn1)Nc1cccs1 | . | -1% | 2.2 | 0 | .
COc1cc(NC(=O)CSc2ncccc2C(=O)OC(C)C)cc(OC)c1 | -28 | -5% | -1.1 | -3 | -3
CCN(CC)C(=O)CSc1nc(-c2ccc(C)cc2)nc2c1COC(C)(C)C2 | -2 | 9% | 4.9 | 11 | -5
COc1ccc(N(CC(=O)NCc2cccnc2)S(=O)(=O)c2ccc(C)c([N+](=O)[O-])c2)cc1 | . | -9% | 0.9 | -2 | 3
CCN(CC(=O)Nc1c(F)cccc1F)C(=O)/C=C/c1ccc2c(c1)OCO2 | . | . | -4.4 | -4 | .
Cc1cnc(C(=O)OCC(=O)c2ccccc2)cn1 | . | . | 1.0 | 2 | .
CN1CCN(c2nc3c(c(=O)[nH]c(=O)n3C)n2Cc2ccc(Cl)cc2)CC1 | . | . | 2.4 | -2 | .
Cc1ccc(S(=O)(=O)/N=C(\CCl)N2CCOCC2)cc1 | -22 | -1% | 12 | 95 | 4
COCC(=O)N1CCC(Oc2ccc(C(=O)N(C)C(C)c3ccon3)cc2)CC1 (configuration not stated) | . | . | 1.5 | ? | .
Cc1nnc(NC(=O)C2c3ccccc3Oc3ccccc32)s1 | -25 | -1% | 1.0 | -8 | -5
CCC1=NN(C(=O)Cc2ccc(OC)c(OC)c2)C(O)(C(F)(F)F)C1 (configuration not stated) | -26 | 1% | -6.7 | -1 | -4
COc1ccc(N2C(=O)c3ccccc3C2O)cc1 (configuration not stated) | . | . | 2.5 | 0 | .
Cc1cc2c(SCC(=O)N3CCN(c4ccccc4)CC3)ncnc2s1 | . | . | 1.8 | -5 | .
CN(C)S(=O)(=O)c1cccc(NC(=S)NC2CCCCC2)c1 | . | 1% | 2.3 | -3 | 4
O=C(Cc1ccccc1)NC1CCN(S(=O)(=O)c2cccc(F)c2)CC1 | -25 | -9% | 0.2 | -5 | -18
CC1(C(=O)O)CCC(C(=O)NNC(=O)c2ccccc2O)C1(C)C (configuration not stated) | . | . | 5.7 | -10 | .
CC(=O)Nc1cccc(NC(=O)CSc2nnnn2C)c1 | -20 | -1% | 0.6 | . | 3
Cc1nnc(SCC(=O)NC2CCCCC2)n(N)c1=O | -23 | -8% | -3.3 | -9 | 1
Cc1ccc2cn[nH]c2c1NC(N)=S | . | 11% | 1.8 | -2 | -1
O=C(COC(=O)c1ccc(Cl)nc1)NC(=O)c1ccccc1 | . | . | -1.9 | ? | .
COc1cccc2[nH]c3c(N4CCCCC4)ncnc3c12 | -11 | 7% | . | -3 | -1
Cc1csc(SCC(=O)Nc2nc(-c3ccccc3)cs2)n1 | -18 | 2% | 12 | 50 | 3
CN1CCN(c2ccc(NS(=O)(=O)c3ccc(Cl)cc3)cn2)CC1 | . | 9% | -1.6 | 2 | 1
O=C(Cn1ccc2ccccc2c1=O)NCCC(=O)Nc1ccc2c(c1)OCCO2 | -20 | 1% | -6.1 | -8 | 3
COc1cccc(NC(=O)COC(=O)c2ccccc2F)c1 | -22 | 5% | -3.1 | 3 | -2
NCCNc1ccc([N+](=O)[O-])cc1 | . | -1% | 2.3 | 0 | .
Cc1nonc1OCCNC(=O)C12CC3CC(CC(C3)C1)C2 | 29 | -1% | -2.2 | -4 | 3
O=C1C2CCCCC2C(=O)N1c1ccc(NC2CCCCC2)c([N+](=O)[O-])c1 (configuration not stated) | -23 | -11% | -3.1 | -5 | 6
Cc1ccc(NC(=O)C2CCN(C(=O)c3cccs3)CC2)c(C)c1 | . | . | 1.8 | 10 | .
CCOc1ccc2nc(SCC(=O)NCc3ccc(OC)cc3)[nH]c2c1 | . | . | -0.1 | -3 | .
Cc1ccc(Cl)cc1NC(=O)CC1NC2CCCCC2NC1=O (configuration not stated) | . | -3% | . | 2 | 4
O=C(COC(=O)/C=C/c1ccco1)Nc1ncc(C(F)(F)F)cc1Cl | -16 | 6% | -2.4 | 2 | 5
CCOC(=O)C1(Cc2cccc(OC)c2)CCN(Cc2cccn2-c2ccccn2)CC1 | . | 8% | 0.9 | 8 | 15
Cc1cnc(NC(=O)c2ccc(Cl)nc2)s1 | . | . | -7.3 | -2 | .
O=C(Nc1ccccc1)Nc1cccc2cccnc12 | -34 | 12% | 1.7 | 69 | 6
CCN1CCN(C(=O)c2cc3c(s2)-c2c(C)cccc2OC3)CC1 | . | . | -58 | -9 | .
CCN(CC)C(=O)CCNS(=O)(=O)c1ccc(C)cc1 | -100 | 2% | -3.6 | 2 | 8
CC1=NN(C(C)C)C(=O)C1 | -9 | 0% | . | -3 | -2
COc1ccc(C(=O)CSc2ccc(-c3ccccc3)nn2)cc1 | 2 | 4% | 1.3 | 4 | -4
CC1CCCCN1CC(=O)Nc1ccccc1Sc1ccccc1 (configuration not stated) | -13 | 6% | 15 | 5 | -26
